# VDR inh: inhibitors of human vitamin D receptor; P11473; actives 0.93% (n = 400,000); Potency, µM, for inactives: max response, negative = inhibition, hits mostly inhibitors; AID 504847; VDR-SRC2-3 peptide fluorescence polarization, 2 h; active means well fitted inhibition curve with a large enough effect; inconclusive means small, poorly fitted or top-dose-only effect, or another doubt; inactive means no such curve, though single readings can be large or run the other way; further: series mostly up to about 120 µM
# Target sequence (P11473 whole entry, looked up): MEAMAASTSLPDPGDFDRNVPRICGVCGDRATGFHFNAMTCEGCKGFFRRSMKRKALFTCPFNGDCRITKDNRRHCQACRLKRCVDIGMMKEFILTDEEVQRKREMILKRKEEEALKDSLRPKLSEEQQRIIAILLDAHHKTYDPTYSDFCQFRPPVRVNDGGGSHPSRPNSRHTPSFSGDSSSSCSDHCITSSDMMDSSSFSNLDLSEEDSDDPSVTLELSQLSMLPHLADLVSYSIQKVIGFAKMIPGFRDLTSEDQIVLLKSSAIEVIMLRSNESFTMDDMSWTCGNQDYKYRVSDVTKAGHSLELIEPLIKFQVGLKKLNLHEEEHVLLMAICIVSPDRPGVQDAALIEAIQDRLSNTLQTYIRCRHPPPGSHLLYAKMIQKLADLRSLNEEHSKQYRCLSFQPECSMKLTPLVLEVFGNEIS
#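 The screen uses fluorescence polarization to detect compounds that interfere with recruitment of the SRC2-3 coactivator peptide to VDR; plates are read after 2 h at room temperature.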
# Active calls of the source: *; ? = inconclusive; & = joins results of further samples. On the % scale 0 is the no-effect control and ±100 the full control effect; potency means the concentration at half of the fitted maximal effect.
SMILES,VDR inh
Cc1cc(C(F)(F)F)nn1Cc1n[nH]c(=S)n1-c1ccc(Cl)cc1,-13%
Cc1cccc(CSc2nc3nc(C)cc(C)n3n2)c1,-7%
CC1=CC(c2ccccc2)n2nc(N)nc2N1 (centres undefined),-27%
CC(C(=O)O)c1ccc(N2Cc3ccccc3C2=O)cc1 (centres undefined),-1%&-8%
C=CCNC(=O)C1CC(=O)N(c2ccc(OCC(=O)Nc3ccc(Cl)cc3)cc2)C1 (centres undefined),?
CCOc1ccc(CNC(=S)Nc2ccccc2)cc1Cl,-3%
COc1ccc(-n2nnnc2SCC(=O)c2ccc3c(c2)OCCO3)cc1,-4%
Cc1cc(C(=O)N2CCN(c3ncccc3C#N)CC2)no1,12%
COc1ccc(/C=C/C2=CC(C)(C)NC(=S)N2)cc1,-12%
O=C(CNC(=O)c1ccc(Oc2ccccc2)cc1)OCc1ccc(Br)cc1,-8%
CCn1c2ccccc2c2nnc(SCC(=O)Nc3cc(C)on3)nc21,12%
COc1cc(OC)cc(C(=O)N[C@H](C(=O)Nc2ccc(S(=O)(=O)N(C)C)cc2)C(C)C)c1,7%
O=C(CCC1CCN(C(=O)Cc2c(F)cccc2F)CC1)NC1CC1,28%
CC(=O)N1CCCc2cc(S(=O)(=O)NCc3ccccc3Cl)ccc21,1%
Cc1cc(S(=O)(=O)NCC(c2ccco2)S(=O)(=O)c2ccccc2)ccc1F (centres undefined),6%
COc1cc(/C=N/N2CCN(C3c4ccccc4-c4ccccc43)CC2)cc(OC)c1OC,5%
O=Nc1c2ccc[nH]c-2c2ccc([N+](=O)[O-])cc12,-5%
COc1cc(NC(=O)Cn2cnc(S(=O)(=O)N3CCOCC3)c2)cc(OC)c1OC,-1%
CCc1c(C)[nH]c2ccc(C)cc2c1=O,6%
Cc1ccc(CNC(=O)CN(c2ccc(C)cc2)S(=O)(=O)c2c(C)nn(C)c2C)cc1,-22%&-10%
CCO[C@H]1OC(C(=O)N2CCCCCCC2)=C[C@@H](c2ccc(C(F)(F)F)cc2)[C@@H]1CCCO,-7%
CC(OC(=O)C1=COCCO1)C(=O)Nc1ncc(Cl)cc1Cl (centres undefined),3%
CCOc1ccc(C(=O)CCNC(Cc2cnc[nH]2)C(=O)O)cc1 (centres undefined),6%
Cc1sc(NC(=O)C2=COCCO2)nc1-c1ccc(F)cc1,5%
Cc1cc(Cl)ccc1NC(=O)C1CCN(S(=O)(=O)c2ccc3[nH]c(=O)ccc3c2)CC1,-2%

# Additional results follow:
SMILES,VDR inh
COc1ccc(NC(=O)c2ccccc2NC(=O)CN2CCCCCC2)cc1,1%
COC(=O)c1c(NC(=S)NN2CCOCC2)sc2c1CCCC2,-6%
CCOC(=O)C1CCN(S(=O)(=O)c2ccc(NC(C)=O)c(Cl)c2)CC1,-5%
COc1ccccc1NC(CC(=O)c1ccccc1)C(=O)OCC(=O)c1ccc(C)c(C)c1 (centres undefined),?
Cc1cc(=O)n(-c2ccc(C(=O)O)cc2)[nH]1,-5%
Cc1ccc(S(=O)(=O)N2CCC(c3nnc(-c4cccc(C)c4)o3)CC2)cc1,?
N#C/C(=C(/O)c1ccc(Br)s1)c1nc2ccccc2[nH]1,-18%
CC1CN(C(=O)c2cccc(C(=O)N3CC(C)OC(C)C3)c2)CC(C)O1 (centres undefined),-2%
CC(=O)Nc1ccc(NC(=O)CN(C)CC(=O)Nc2ccccc2Br)cc1,-8%
O=C(COC(=O)c1cccnc1)Nc1cccc2ccccc12,-3%
O=C(Cn1cnc2ccccc2c1=O)NNC(=O)c1cccc([N+](=O)[O-])c1,-17%
COCCN(C(=O)CCC(=O)Nc1nccs1)C(C(=O)NC(C)(C)C)c1ccc(C)cc1 (centres undefined),5%
CC(C)N(CCCNC(=O)Cn1c(=O)c2cccn2c2ccccc21)Cc1ccccc1,-4%
O=S(=O)(/N=C(/Nc1ccccn1)c1ccc(Cl)cc1)c1ccc(Cl)cc1,-14%
COc1ccc(NS(=O)(=O)c2cc3c(cc2C)N(C)CCO3)c(OC)c1,-4%
O=C(CCN1CCN(Cc2ccccc2)CC1)NNC(=O)Nc1cccc(Cl)c1,-1%
CCOC(=O)c1c(NC(=O)c2cccnc2)sc(C)c1C,-11%
c1ccc(-c2nnc3nc(N4CCCCC4)nc(N4CCCCC4)n23)cc1,-21%
COc1ccc(C(=O)N(Cc2ccco2)Cc2ccc(C)o2)cc1,13%
Cc1ccc(NC(=S)N2CCCC(c3nc4ccc(C)cc4[nH]3)C2)c(C)c1 (centres undefined),-22%
CC12CCC(=O)C=C1CCC1C2C(O)CC2(C)C1CCC2(O)C(=O)CO (centres undefined),-18%
CC1CCCCN1CC(O)COCCC12CC3CC(CC(C3)C1)C2 (centres undefined),8%
Cc1cccc(Nc2ncnc3onc(-c4ccc(Cl)cc4)c23)c1C,21%
O=C(Cn1cc(Br)ccc1=O)Nc1ccc2c(c1)OCO2,-5%
CC(=O)N1CC=CC1(CC(C)C)C(=O)NCc1cc(F)cc(C(F)(F)F)c1 (centres undefined),-17%

# Following part.
SMILES,VDR inh
COc1ccc(NC(=O)CN2CCN(C(=S)NC3CCCC3)CC2)cc1,-22%
Cc1cc(=O)n(C2CCS(=O)(=O)C2)[nH]1 (centres undefined),-1%
COC(=O)C(C)CCCC(C)CCCC(C)CCCC(C)C (centres undefined),11%
COc1cc(CCC(=O)OCC(=O)Nc2ncc(Cl)cc2Cl)cc(OC)c1OC,18%
COc1cccc(C2C(C#N)=C(N)N(N(C)C)C3=C2C(=O)CC(C)(C)C3)c1 (centres undefined),4%
O=C(NCCCc1nc2ccccc2n1CCCCOc1ccccc1)C1CCCCC1,-13%
Cc1cc(C)nc(NS(=O)(=O)c2ccc(NC(=O)c3ccco3)cc2)n1,1%
COc1ccc(-c2c(C3=CCCCC3)oc3ccc(-c4ccc5c(c4)OCO5)cc23)cn1,-9%
O=C(Nc1ccccc1)C1CCN(S(=O)(=O)c2ccc3c(c2)CCCN3C(=O)C2CCC2)CC1,-3%
COc1ccc(N2CCN(C(=O)COC(=O)CNC(=O)c3ccc(Cl)cc3Cl)CC2)cc1,-27%
COc1cccc(N2C(=NC(=O)C3CCCO3)SC3CS(=O)(=O)CC32)c1 (centres undefined),11%
CCOc1ccc(C(=O)Nc2ccc3nc(SCc4ccccc4)sc3c2)cc1,13%
O=C(O)CO.[NH2-].[NH2-].[Pt+2],-12%
COc1ccc(-c2cc(C(=O)O)sc2C)cc1,2%
Cc1cc(Nc2cccc(F)c2)n2nc(C)nc2n1,-18%
Cc1cc(=O)n2nc(N3CCC(C(=O)NCc4ccc(F)cc4)CC3)sc2n1,-4%&2%
Cc1cc2nnc(SCC(=O)NCC3CCCO3)n2c2ccccc12 (centres undefined),-17%
CC(C)OP(=O)(OC(C)C)C(O)c1cccc([N+](=O)[O-])c1 (centres undefined),20%
C[C@@H](NC(=O)[C@@H]1Cc2ccccc2CN1C(=O)OC(C)(C)C)C(=O)NCC1CCCO1 (some centres undefined),1%
CCOC(=O)N1CCN(c2cc(=O)n(-c3cccc(Br)c3)c(=O)[nH]2)CC1,-10%
C/C(=N\NC(=O)c1cccc(S(=O)(=O)N2CCOCC2)c1)c1ccc(C#N)cc1,1%
C/C(CC(=O)N1CCCC1)=N\NC(=O)c1cc2ccccc2cc1O,-5%
COc1ccc(NC(=O)c2cc(C)nc3c2c(C)nn3-c2cccc(Cl)c2C)c(OC)c1,-3%
CCOCCc1nnc(NC(=O)c2cccc(F)c2)s1,-6%
Cc1cccc(NC(=O)c2ccccc2OCC(=O)c2ccccc2)c1,-16%

# A second format for part of the listing above:
VDR inh	molecule
-13%	O=C(NCCCc1nc2ccccc2n1CCCCOc1ccccc1)C1CCCCC1
1%	Cc1cc(C)nc(NS(=O)(=O)c2ccc(NC(=O)c3ccco3)cc2)n1
-9%	COc1ccc(-c2c(C3=CCCCC3)oc3ccc(-c4ccc5c(c4)OCO5)cc23)cn1
-3%	O=C(Nc1ccccc1)C1CCN(S(=O)(=O)c2ccc3c(c2)CCCN3C(=O)C2CCC2)CC1
-27%	COc1ccc(N2CCN(C(=O)COC(=O)CNC(=O)c3ccc(Cl)cc3Cl)CC2)cc1
11%	COc1cccc(N2C(=NC(=O)C3CCCO3)SC3CS(=O)(=O)CC32)c1 (centres undefined)
13%	CCOc1ccc(C(=O)Nc2ccc3nc(SCc4ccccc4)sc3c2)cc1
-12%	O=C(O)CO.[NH2-].[NH2-].[Pt+2]
2%	COc1ccc(-c2cc(C(=O)O)sc2C)cc1
-18%	Cc1cc(Nc2cccc(F)c2)n2nc(C)nc2n1
-4%&2%	Cc1cc(=O)n2nc(N3CCC(C(=O)NCc4ccc(F)cc4)CC3)sc2n1
-17%	Cc1cc2nnc(SCC(=O)NCC3CCCO3)n2c2ccccc12 (centres undefined)
20%	CC(C)OP(=O)(OC(C)C)C(O)c1cccc([N+](=O)[O-])c1 (centres undefined)
1%	C[C@@H](NC(=O)[C@@H]1Cc2ccccc2CN1C(=O)OC(C)(C)C)C(=O)NCC1CCCO1 (some centres undefined)
-10%	CCOC(=O)N1CCN(c2cc(=O)n(-c3cccc(Br)c3)c(=O)[nH]2)CC1
1%	C/C(=N\NC(=O)c1cccc(S(=O)(=O)N2CCOCC2)c1)c1ccc(C#N)cc1
-5%	C/C(CC(=O)N1CCCC1)=N\NC(=O)c1cc2ccccc2cc1O
-3%	COc1ccc(NC(=O)c2cc(C)nc3c2c(C)nn3-c2cccc(Cl)c2C)c(OC)c1
-6%	CCOCCc1nnc(NC(=O)c2cccc(F)c2)s1
-16%	Cc1cccc(NC(=O)c2ccccc2OCC(=O)c2ccccc2)c1

# The results go on:
SMILES,VDR inh
COc1ccc(N2C(=O)CCSC23C(=O)N(Cc2ccc(F)cc2)c2ccccc23)cc1Cl (centres undefined),3%
COc1ccc(-c2cn3nc(N4CCC(C(=O)Nc5cc(Cl)ccc5OC)CC4)sc3n2)cc1,3%
CCOc1cccc(C(=O)Nc2cccc(C(=O)NC(C)(C)C)c2)c1,-8%
Cc1ccc(-c2cc(-c3ccc4c(c3)OCO4)c(C#N)c(N)n2)o1,2%
Cn1c(SCC(=O)NCc2ccc3c(c2)OCO3)nnc1C1COc2ccccc2O1 (centres undefined),-2%
Cc1ccc(NC(=O)Cn2nnc(C(=O)NCCc3ccccc3)c2N)cc1C,14%
Cc1nc2ccccc2c(=O)n1NC(=O)c1cccc(Cl)c1,-22%
COc1ccc(N(CC(=O)N2CCN(c3cccc(OC)c3)CC2)S(=O)(=O)c2c(C)noc2C)cc1,-9%
CCC(NC(=O)c1ccccc1NC(=O)c1ccccc1)C(=O)NNC(=O)c1cccnc1 (centres undefined),-1%
CCOC(=O)C1CCN(C(=O)Cn2ncc3c4ccccc4n(Cc4ccc(F)cc4)c3c2=O)CC1,1%
O=[N+]([O-])c1cccc(N=Cc2ccccc2)c1,-2%
Cc1ccc(C(=O)Nc2cccc(NC(=O)c3ccc(C)o3)n2)o1,-1%
C=CCSc1nc(C)c2cc(C)cc(C)c2n1,4%
O=[N+]([O-])/C(=C\Nc1ccc(F)cc1F)S(=O)(=O)c1ccccc1,-14%
C[C@@H]1CC[C@@]2(OC1)O[C@H]1C[C@H]3[C@@H]4CC=C5C[C@@H](O)[C@H](O)C[C@]5(C)C4CC[C@]3(C)[C@H]1[C@@H]2C (some centres undefined),-13%
COc1ccc(-c2nc(CSc3nc4ncccc4[nH]3)c(C)o2)cc1OC,-9%
CCc1ccc(C(=O)OCC(=O)NCC(F)(F)F)cc1,13%
CN1/C(=C/c2cccc[n+]2CCO)Sc2ccccc21,-8%
O=C(Nc1ccccc1C(F)(F)F)n1ncc2cc(Cl)ccc21,6%
COc1ccc(C(=O)/C(Br)=C/C(=O)O)cc1,-5%
CCOc1ccc(NC(=O)CN(C)C(=O)c2cccnc2Sc2ccc(C)c(C)c2)cc1OCC,7%
O=C(CCCN1C(=O)c2ccccc2C1=O)Nc1ccccc1C(=O)N1CCOCC1,3%
CCOC(=O)CNc1c(-c2ccc(Cl)cc2)nc2cnccn12,8%
O=[N+]([O-])c1ccc(Cl)c(S(=O)(=O)Nc2cccc(-c3ccc(N4CCOCC4)nn3)c2)c1,-15%
COc1ccc(CCn2c(S)nc3ccccc3c2=O)cc1,7%

# Further structures.
SMILES,VDR inh
CCN(N=O)c1ccc(C=C2C=Cc3ccccc32)cc1,-12%
O=C1N=C(N2CCN(c3ccccc3)CC2)S/C1=C\c1cn[nH]c1-c1ccccc1,2%
COc1cccc(Nc2ncc3nc(-c4cc(F)cc(F)c4)c(=O)n(C[C@H]4CCCO4)c3n2)c1,-2%
COc1ccc(CN2CC(=O)N(c3ccc(C)cc3)C2=S)cc1OC,-12%
CCC1(c2ccc(F)cc2)NC(=O)N(CC(=O)Nc2ccccc2Cl)C1=O (centres undefined),-11%
CC(C)NC(=S)N1CCN(S(=O)(=O)c2cccc(C(F)(F)F)c2)CC1,-25%
COC(=O)c1cc2occc2n1Cc1cccc(C)c1,15%&-1%
O=C1C[C@@H]2c3c(cccc3CN1Cc1ccccc1Br)C[C@@H](O)[C@H]2O,-20%
COc1ccc(NC(=O)c2c(NC(=O)c3ccncc3)sc3c2CCC(C(C)(C)C)C3)cc1 (centres undefined),-4%
O=C(CCCc1ccccc1)NCc1ccc(F)cc1,-7%
O=C(NCN1CCOCC1)c1cnccn1,11%&7%
CC(=O)Nc1ccc2c(c1)Cc1ccc(Cl)cc1-2,-2%
CC(C(=O)NC1(C#N)CCCCC1)N(C)CC(=O)Nc1ccc(Cl)c(Cl)c1 (centres undefined),10%
COc1ccc(C2NC(=S)NC(O)(C(F)(F)F)C2C(=O)c2cccs2)cc1 (centres undefined),7%
Cc1ccccc1N(CC(=O)NC(C)(C)C)C(=O)CS(=O)CC(=O)Nc1ccc2c(c1)OCO2 (centres undefined),30%
COc1c(C(=O)NNC(=O)c2ccccc2)csc1Br,-15%

# Assay outcomes as filed in PubChem BioAssay.

# Not all compounds are listed. The share of hits here may be higher or lower than overall.
